LANA-H2B inh = blocks KSHV LANA binding to histone H2A/H2B | Q9QR71 | cell-free LANA-H2A/H2B peptide, fluorescence polarization | inhibition, % (test concentration not listed) | actives 0.6% (n = 320,000); in the data active = inhibition mostly above about 10%, no sharp cut-off; inactive = mostly below about 6.7%;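 note: stock transfer was 7.5 nL into about 10 µL; 0% = median of vehicle wells and 100% = median of positive control wells; one replicate is shown; the record names a cut of 25% in any replicate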
ALR inh = human ALR oxidase inhibition via reduced H2O2; inhibition, % (test concentration not listed); purified ALR, DTT oxidation, H2O2 HRP-luminol luminescence; actives 3.8% (n = 290,000); P55789; AID 485317;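 active = mean and each replicate at 75% or more; inconclusive = only one of the two met; inactive = neither met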;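 note: stock transfer was 7.5 nL into about 7.5 µL; 0% = neutral wells and 100% = wells with inactivated enzyme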
Target sequence (P55789 whole entry, looked up): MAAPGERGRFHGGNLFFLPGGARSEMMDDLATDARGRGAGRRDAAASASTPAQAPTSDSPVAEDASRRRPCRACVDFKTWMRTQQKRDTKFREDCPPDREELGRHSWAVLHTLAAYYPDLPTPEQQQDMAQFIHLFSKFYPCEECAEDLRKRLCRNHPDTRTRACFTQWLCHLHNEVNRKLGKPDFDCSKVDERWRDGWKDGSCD
RanGTP-Impb inh = disruptors of Ran-importin-beta complex formation – biochemical, FRET, CFP-Ran, YFP-importin-beta, homogeneous, primary screen; inhibition, % (no concentration beside the values); cell-free CFP-Ran/YFP-importin-beta FRET ratio; actives 1.1% (n = 300,000);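 active = most replicates above 15%; inconclusive = exactly half above 15%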;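 note: 0% = DMSO wells and 100% = Ran loaded with GDP instead of GTP; wells of about 40 µL received 100 nL stock; the first replicate is given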
Calb FLC = affects C. albicans growth with fluconazole; AID 1979; actives 0.57% (n = 300,000); C. albicans CaCi-2 (fluconazole-resistant clinical isolate) + fluconazole, Alamar Blue growth, 48 h; growth inhibition, % (test concentration not listed);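 active = most replicates above 75%; inconclusive = exactly half above 75%; inactive = most below 75%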;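 note: all wells also contain fluconazole at 8 µg/ml as a sub-toxic cotreatment; 0% = median of DMSO wells and 100% = median of geldanamycin control wells; wells of about 8 µL received 7.5 nL stock; the first replicate is given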
HNF4A DNA FP = change in binding of human HNF4 alpha to DNA; HNF4a-FITC DNA binding, fluorescence polarization, 1 h; activity change, % at 10 µM; actives 0.3% (n = 360,000); AID 1224865; in the data active = activity change above about 30%, passing the limit was not always enough;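 note: controls were the assay level and a saturating level of protein; the project sought stronger binding though the title names inhibitors; some compounds called inactive have numbers as strong as hits; positive values seem to mean higher polarization but the record does not say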
Target sequence (P41235 whole entry, looked up): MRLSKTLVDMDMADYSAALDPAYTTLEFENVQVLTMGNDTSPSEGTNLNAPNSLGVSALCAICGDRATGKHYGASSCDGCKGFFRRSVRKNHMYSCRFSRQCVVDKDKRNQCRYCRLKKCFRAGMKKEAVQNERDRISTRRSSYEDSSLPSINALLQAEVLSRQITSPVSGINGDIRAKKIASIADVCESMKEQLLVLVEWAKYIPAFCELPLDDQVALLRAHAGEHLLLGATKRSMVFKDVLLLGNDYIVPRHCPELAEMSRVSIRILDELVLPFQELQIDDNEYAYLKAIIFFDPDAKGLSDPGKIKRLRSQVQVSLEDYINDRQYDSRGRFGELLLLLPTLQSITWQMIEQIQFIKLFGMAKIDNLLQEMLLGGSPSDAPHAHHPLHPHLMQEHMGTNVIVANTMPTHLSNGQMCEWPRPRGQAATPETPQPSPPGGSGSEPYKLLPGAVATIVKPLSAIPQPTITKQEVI
B2AR ag = agonists of human beta-2 adrenergic receptor inducing internalization | P07550 | Am2.2-beta2AR cells, FAP receptor internalization, flow cytometry; reference of the scale not given here | response, % (no concentration beside the values) | actives 0.43% (n = 340,000);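 active = response above a set limit, near 3 SD of response in nonfluorescent compounds, cut at about 42% in these data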;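 note: stock transfer was 100 nL into about 11 µL; a reference agonist was the positive control; negative values mostly stem from fluorescent compounds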
Target sequence (P07550 whole entry, looked up): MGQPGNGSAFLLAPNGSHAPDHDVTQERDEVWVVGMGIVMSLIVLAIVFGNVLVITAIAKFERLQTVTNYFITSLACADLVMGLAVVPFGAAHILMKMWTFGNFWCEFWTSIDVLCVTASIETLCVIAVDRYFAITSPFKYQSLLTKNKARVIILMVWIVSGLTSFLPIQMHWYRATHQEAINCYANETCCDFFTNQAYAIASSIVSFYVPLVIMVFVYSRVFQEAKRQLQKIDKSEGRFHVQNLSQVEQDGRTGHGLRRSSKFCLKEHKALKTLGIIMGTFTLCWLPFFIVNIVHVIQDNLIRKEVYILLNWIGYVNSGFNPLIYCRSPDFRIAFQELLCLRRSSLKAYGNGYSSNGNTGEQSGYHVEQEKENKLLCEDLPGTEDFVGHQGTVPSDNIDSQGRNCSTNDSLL
Vif TR-FRET = inhibitors of Vif binding to APOBEC3G peptide, primary screen, biochemical, TR-FRET, GST-Vif 1-94, biotin-A3G peptide, dose response retest (AID 1117319). TR-FRET GST-Vif / biotin-A3G peptide binding; higher % means a stronger effect; test concentration not given here; strong numbers were not always called active. inhibition, %, or IC50 in µM where a hit was titrated. actives 0.57% (n = 260,000);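 active = above the screen mean plus three standard deviations and confirmed in dose response; inconclusive = results disagree or hit not tested in dose response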;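 note: Vif residues 1-94 fused to GST binding biotinylated APOBEC3G peptide 110-148; 0% = full assay without inhibitor and 100% = GST in place of GST-Vif; retest series ran down from 100 µM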
* marks the source's active call; other numbers are inactive results; ? = inconclusive; . = no result given.

Values in the order: LANA-H2B inh	ALR inh	RanGTP-Impb inh	Calb FLC	HNF4A DNA FP	B2AR ag	Vif TR-FRET
1	O=C(O)c1ccccc1NC(=O)c1cc(-c2ccccc2)nc2ccccc12
    -3.6	98*	-4.9	-5	1.6	8	4%
2	Cc1ccc(C(=O)Oc2cccc(-n3cnnn3)c2)cc1
    1.1	-2	9.8	4	-3.9	-3	12%
3	Cn1ccnc1SCC(=O)N(C1CCCCC1)C1CCCCC1
    3.8	10	-7.4	1	-0.4	19	-2%
4	S=C(N/N=C/c1ccco1)NC1CC2CCC1C2 (configuration not stated)
    -1.7	98*	1.6	6	-2.6	-8	12%
5	Cc1ccc(C(O)(C(=O)NNc2ccccn2)c2ccc(C)cc2)cc1
    -16	41	0.4	2	3.4	-1	-3%
6	CN1C(=O)C(O)(c2nnc(-c3ccccc3)o2)c2ccccc21 (configuration not stated)
    0.9	-7	-0.5	-1	0.3	-5	2%
7	COc1ccc(NC(=O)C2CCN(S(=O)(=O)c3ccccc3)CC2)cc1
    -8.1	0	7.4	-7	-2.5	9	.
8	COC/C=C/C1=CC2=CC(=O)C(C)(OC(=O)c3cnc4ccccc4n3)C(=O)C2=CN1C1CCCCC1 (configuration not stated)
    -2.9	.	-0.6	23	.	.	.
9	CC(C)c1ccccc1NC(=O)C1CN(S(=O)(=O)c2ccccc2)CCN1S(=O)(=O)c1ccccc1 (configuration not stated)
    1.7	-3	6.7	21	1.5	4	21%
10	Cc1ccc(C2/C(=C(/O)c3cnn(-c4ccccc4)c3C)C(=O)C(=O)N2CCCN2CCOCC2)o1 (configuration not stated)
    -4.8	-11	4.1	-1	.	.	16%
11	Clc1cccc(Cl)c1C1Nc2cccc3cccc(c23)N1
    1.3	-20	-1.2	33	2.5	21	.
12	Cc1c(Cl)cccc1NC(=O)Cn1c(CCC(=O)O)ccc1-c1ccccc1
    -3.3	-1	1.2	12	1.6	5	-3%
13	CCCC(O)(c1ccc(OC)cc1)C(CN1CCOCC1)c1ccccc1 (configuration not stated)
    -6.3	-4	0.7	3	4.4	-1	2%
14	Cc1nc(SCc2ccc(O)c([N+](=O)[O-])c2)n[nH]1
    -1.4	-2	-2.2	-7	0.8	-4	-2%
15	COC(=O)C(C)(C)ONC(=O)Nc1ccccc1[N+](=O)[O-]
    2.3	-3	1.5	20	0.4	3	.
16	CCc1ccc2oc(C(=O)Nc3nonc3C)c(C)c2c1
    -0.2	-2	3.6	-5	-2.6	-4	-9%
17	COc1ccc(NC(=O)COc2ccccc2C)cc1S(=O)(=O)N1CCCCC1
    -3.0	-14	0.0	0	2.0	1	0%
18	Cc1ccc(CNC(=O)CN(Cc2cccs2)C(=O)C2(C)CC(=O)N=C3C=CC=CN32)cc1 (configuration not stated)
    -1.6	-1	1.3	-10	-0.1	3	-7%
19	N/C(COc1cccc(C(F)(F)F)c1)=N\NC(=O)c1cccnc1Oc1ccccc1
    -1.2	-14	0.5	-6	0.4	2	-2%
20	CCN1CCCC1CNC1=NCCCCC1 (configuration not stated)
    0.2	-2	1.1	-8	7.5	7	-3%
21	Cc1cc(C(=O)N/N=C/c2ccc(-c3cccc([N+](=O)[O-])c3)o2)n[nH]1
    -4.7	-11	0.0	-4	-0.8	3	.
22	Cc1ccc(Cn2c(=N)n(CC(=O)c3ccc([N+](=O)[O-])cc3)c3ccccc32)cc1
    2.4	-2	-2.3	-12	64*	100*	?
23	CCC/C(C#Cc1ccc(N(C)C)cc1)=C1/c2ccccc2C(=O)N1c1ccccc1
    -5.4	-1	.	.	95	-183	.
24	CCOc1cc(N2CCOCC2)c(OCC)cc1NC(=O)Cc1ccccc1
    2.8	-22	?	9	0.7	-5	1%
25	CN(C)c1nc(SCc2ccccc2)nc(N2CCOCC2)n1
    -1.5	4	0.1	-8	-4.4	-5	-3%
26	COc1ccc2c(c1)O[C@H](c1ccc3c(c1)OCO3)[C@@H](OC(=O)Nc1cc(OC)c(OC)c(OC)c1)C2=O
    0.7	1	-0.5	3	.	.	.
27	O=S1(=O)c2ccccc2N=NN1Cc1ccc(Cl)cc1
    -1.3	-1	-0.4	-3	-0.2	1	29%
28	O=[N+]([O-])c1ccc(-c2nc(NCC3CCCO3)c3ccccc3n2)cc1 (configuration not stated)
    4.1	31	-1.6	4	0.5	-3	-1%
29	O=C(Nc1cc([N+](=O)[O-])ccc1O)NC1CCS(=O)(=O)C1 (configuration not stated)
    3.9	-3	.	.	1.3	-2	-10%
30	CC12c3ccccc3C(c3ccccc31)C1C(=O)N(c3cccnc3)C(=O)C12 (configuration not stated)
    -3.4	0	0.2	-4	4.8	-4	23%
31	COc1ccccc1NS(=O)(=O)c1cc(C(=O)NCc2cccnc2)ccc1C
    -0.6	-5	2.6	-4	-2.9	4	6%
32	O=C(NC1CCCCC1)c1ccccc1-c1ccccc1
    2.7	3	0.1	0	0.7	18	17%
33	CC(C)NS(=O)(=O)c1ccc(NC(=O)C(C)OC(=O)CCCOc2ccccc2)cc1 (configuration not stated)
    .	.	.	.	0.4	10	-4%
34	COc1ccc(NC(C)=O)cc1NS(=O)(=O)c1cn(C)c(=O)n(C)c1=O
    1.8	.	-2.2	-4	1.5	-1	.
35	COc1ccccc1C(=O)NCCn1cc(SCC(=O)NCC2CCCO2)c2ccccc21 (configuration not stated)
    7.5	4	4.0	-3	-3.1	-12	3%
36	COc1ccc(-c2n[nH]c(=S)n2N)c(OC)c1
    1.1	17	-2.8	-3	-3.2	10	7%
37	CC1N(C(=O)N2CCOCC2)CCN1S(=O)(=O)c1ccc(Cl)cc1 (configuration not stated)
    1.2	5	2.0	0	2.0	1	.
38	COc1ccc(N2C(=O)CC(N3CCN(c4ccc(S(C)(=O)=O)cc4)CC3)C2=O)cc1 (configuration not stated)
    1.8	2	9.3	10	1.9	0	9%
39	O=c1c2cc3ccccc3n2cnn1Cc1ccccc1F
    -1.4	5	-0.6	29	2.4	-3	22%
40	O=C(NCc1ccncc1)C1=NN(c2ccccc2)C(=O)CC1
    -2.7	94*	-3.5	-3	1.6	-5	3%
41	O=C(COC(=O)C1=COCCO1)Nc1ccccc1OC(F)F
    1.4	-2	-1.6	20	-1.8	-3	-11%
42	CC(C)OC(=O)c1sc2nc3c(cc2c1N)C(=O)CCC3
    -0.5	-5	-6.7	5	-1.2	-6	11%
43	C=CC[C@@H](CC(=O)NCCO)C(=O)N[C@H](C)COC(=O)[C@@H](CC=C)CC(=O)OC(C)(C)C
    1.8	4	.	.	-2.6	7	.
44	Cc1ccc(CN2CCN(c3ncccn3)CC2)c(C)c1
    -2.8	.	-3.9	-7	3.1	-2	.
45	CCOC(=O)C1=C(COC(=O)c2cccnc2Cl)NC(=O)NC1C (configuration not stated)
    5.2	-8	-4.4	9	3.0	-2	-4%
46	Cc1ccc(C)c(SCc2noc(C(=O)NC(C)C)c2C(=O)O)c1
    5.0	28	2.9	-15	0.8	-3	-2%
47	CCOC(=O)/C=c1\s/c(=C\c2ccccc2C)c(=O)n1CC(=O)NCc1ccc2c(c1)OCO2
    0.5	-9	-0.2	-5	11	-6	20%
48	Cc1ccc(C)c2sc(NC(=O)c3nc4ccccc4s3)nc12
    -0.4	.	-3.7	4	1.5	-8	.
49	CCN1CCN(C(=O)c2ccc(Cl)c(S(=O)(=O)N3CCCCCC3)c2)CC1
    -3.2	-4	-1.9	30	0.6	-2	1%
50	Cc1ccc(N(CC(=O)O)S(=O)(=O)c2cccc3nonc23)cc1
    5.2	-27	0.5	3	-2.2	6	-1%

Going on with the list:
Values in the order: LANA-H2B inh	ALR inh	RanGTP-Impb inh	Calb FLC	HNF4A DNA FP	B2AR ag	Vif TR-FRET
51	CCC(=O)Nc1ccc(Cl)c(NC(=S)NC(=O)COc2ccc(Cl)cc2)c1
    2.8	.	0.8	41	-2.5	-5	?
52	CC1(c2ccc(C#N)cc2)NC(=O)N(CC(=O)Nc2cc(S(=O)(=O)N3CCOCC3)ccc2Cl)C1=O (configuration not stated)
    3.4	-10	-2.9	22	4.6	3	.
53	Cc1cc(C)c2c(c1)cc(C)c1nnc(SCC(=O)Nc3cc(C)on3)n12
    0.7	-3	?	2	-0.7	-3	?
54	Cc1ccc(S(=O)(=O)N2[C@@H](c3ccc(C(C)(C)C)cc3)C(C(=O)O)=CC[C@H]2c2cccc(Cl)c2)cc1
    .	2	.	.	-17	5	8%
55	CSc1ccc(CN2CCC(Oc3cccc(C(=O)N4CCCC4)c3)CC2)cc1
    5.9	-4	11	-15	4.3	-7	.
56	Nc1ccc(-n2nc3ccccc3n2)cc1
    3.7	-5	0.3	-1	-0.5	3	.
57	CC(C)(C)C1=CC(=O)C(=O)C(C(C)(C)C)=C1
    6.8	-8	2.7	-44	0.1	110*	?
58	CCN(CC)CCN1C(=O)C2C3c4ccccc4C(c4ccccc43)C2C1=O (configuration not stated)
    -5.1	-7	4.7	-17	-1.1	1	10%
59	Cc1n[nH]c(C)c1C(=O)CC1(O)C(=O)N(Cc2ccccc2)c2ccc(Br)cc21 (configuration not stated)
    2.1	-5	1.7	2	2.5	-2	0%
60	CCN(CC)CCCn1c(=S)[nH]c2ccc(Cl)cc2c1=O
    -2.6	-10	0.9	2	1.8	-22	14%

Compounds above that contain a thiophene ring, fused or not:
Values in the order: LANA-H2B inh	ALR inh	RanGTP-Impb inh	Calb FLC	HNF4A DNA FP	B2AR ag	Vif TR-FRET
18	Cc1ccc(CNC(=O)CN(Cc2cccs2)C(=O)C2(C)CC(=O)N=C3C=CC=CN32)cc1 (configuration not stated)
    -1.6	-1	1.3	-10	-0.1	3	-7%
42	CC(C)OC(=O)c1sc2nc3c(cc2c1N)C(=O)CCC3
    -0.5	-5	-6.7	5	-1.2	-6	11%

(listing goes on)
Values in the order: LANA-H2B inh	ALR inh	RanGTP-Impb inh	Calb FLC	HNF4A DNA FP	B2AR ag	Vif TR-FRET
61	COc1ccc(CCNC(=O)C/C(C)=N/NC(=O)C23CC4CC(CC(C4)C2)C3)cc1OC
    -2.7	16	-2.1	-32	1.6	0	.
62	O=C(O)CCSC(=S)N1CCOCC1
    4.5	-4	-3.7	6	-3.4	2	-8%
63	Cc1ccc(NC(=O)CC(=O)Nc2ccc(C)cc2)cc1
    3.2	-4	2.7	-7	3.8	-8	-6%
64	COc1ccc(CN2C(=O)c3cccnc3C2=O)cc1S(=O)(=O)N(C)c1cccc(C)c1
    1.4	2	4.8	2	-1.9	-2	.
65	CCN(CC)S(=O)(=O)c1cccc(NC(=O)COc2ccc(F)cc2Br)c1
    0.1	.	1.8	4	-4.1	0	-1%
66	NC(=O)c1ccc(NC(=O)CN2CCN(C(=O)c3ccco3)CC2)cc1
    1.3	-2	2.4	5	-18	2	-6%
67	Cc1ccc(C#CC(C)(O)C(C)(C)C)cn1 (configuration not stated)
    0.1	-28	?	.	-1.3	1	-5%
68	COCCn1nnnc1CN1CCC(NC(=O)Nc2cccc(OC)c2)CC1
    1.5	-13	0.0	-1	-0.9	5	-1%
69	O=C(O)/C=C/C(=O)Nc1ccc(S(=O)(=O)N2CCCC2)cc1
    -6.9	-4	0.1	8	6.7	1	-10%
70	CN1C(=O)/C(=C\c2ccc(-c3ccccc3)o2)SC1=S
    -1.4	-6	-5.0	-9	31	-103	-2%
71	Cc1ccc(S(=O)(=O)N2CCN(C(=O)NCc3ccc(C(=O)O)cc3)CC2)cc1
    -5.0	-3	0.5	7	-0.7	-6	.
72	Cc1ccc(S(=O)(=O)CCC(=O)Nc2ccc3c(c2)OCO3)cc1
    -6.4	-14	3.1	3	0.1	4	>100µM*
73	COc1ccc(N2CCN(C(=O)C3COc4ccccc4O3)CC2)cc1 (configuration not stated)
    -2.5	61	1.8	3	1.7	1	10%
74	Cc1cc(C)c(NC(=O)C2CCCN2CCOC(=O)c2ccccc2)c(C)c1 (configuration not stated)
    3.2	-6	-0.3	5	-2.0	-4	-4%
75	Cn1c(=O)c2c(nc(CN3CCC(Cc4ccccc4)CC3)n2CCN2CCOCC2)n(C)c1=O
    .	.	.	.	4.0	-3	2%

Source: PubChem (several laboratories)
